Bioassay records: PubChem BioAssay, National Center for Advancing Translational Sciences (NCATS)
Cruzain Triton – qHTS Assay for Promiscuous and Specific Inhibitors of Cruzain (with detergent); Potency, µM, without a hit: max response, negative = inhibition, usual class: inhibitors; purified cruzain, Z-FR-AMC fluorescence, 0.01% Triton; AID 1478, 2009; 200,000 compounds, 0.43% hits; active = well fitted curve in the direction sought with a large enough effect; inconclusive = small, poorly fitted or top-dose-only effect, or another doubt; inactive = no such curve, though single readings can be large; an effect the other way counts as inactive or inconclusive;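 also: plate controls were neutral wells for no effect and buffer without enzyme for full effect; nearly all actives have a fitted effect of over 40% in size; top concentration of the series not given in the record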
Target sequence (P25779 123-467 limits assumed): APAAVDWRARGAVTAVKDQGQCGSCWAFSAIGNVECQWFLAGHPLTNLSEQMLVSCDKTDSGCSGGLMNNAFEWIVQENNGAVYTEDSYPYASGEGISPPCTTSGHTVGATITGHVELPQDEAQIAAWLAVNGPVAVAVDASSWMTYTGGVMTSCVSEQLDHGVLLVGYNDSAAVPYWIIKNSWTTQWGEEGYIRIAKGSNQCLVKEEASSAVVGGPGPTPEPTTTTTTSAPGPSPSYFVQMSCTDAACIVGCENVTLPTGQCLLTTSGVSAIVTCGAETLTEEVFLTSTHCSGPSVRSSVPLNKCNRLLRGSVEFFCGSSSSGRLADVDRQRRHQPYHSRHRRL
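Cruzain (1.5 nM) preincubated 15 min at RT with compound in 100 mM sodium acetate pH 5.5, 5 mM DTT, 0.01% Triton X-100. Reaction started with 2 uM Z-FR-AMC; AMC fluorescence (ex 360/em 450 nm) change over 60 s gave rate.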
LASV entry inh – qHTS for Inhibitors of binding or entry into cells for Lassa Virus. Potency, µM (titrated, usually from 37.9 µM), inactives show at the highest dose activity change, negative = inhibition, usual class: inhibitors. 300,000 compounds, 1.2% hits. AID 540256, 2011. Lassa virus pseudotype entry inhibition, cell reporter; control for the full effect not named in the record; active means well fitted inhibition curve with a large enough effect; inconclusive means small, poorly fitted or top-dose-only effect, or effect the other way; inactive means flat fitted curve, though single readings scatter; tested in HEK293 cells; also: % is scaled to controls: 0 for no effect and ±100 for the full control effect; nearly all actives have a fitted effect of over 50% in size; luciferase read-out
Cruzain noTriton – qHTS Assay for Promiscuous and Specific Inhibitors of Cruzain (without detergent). purified cruzain, Z-FR-AMC fluorescence, no detergent. Cruzipain (Trypanosoma cruzi), P25779. Potency, µM, for inactives: max response, negative = inhibition, actives largely listed as inhibitors. 200,000 compounds, 2.3% hits; active = well fitted curve in the direction sought with a large enough effect; inconclusive = small, poorly fitted or top-dose-only effect, or another doubt; inactive = no such curve, though single readings can be large; an effect the other way counts as inactive or inconclusive;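 also: plate controls were enzyme without inhibitor for no effect and buffer without enzyme for full effect; nearly all actives have a fitted effect of over 40% in size; top concentration of the series not given in the record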
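Detergent-free condition (0.00005% Triton X-100) in acetate buffer pH 5.5 with DTT. 1.5 nM enzyme and compound were pre-mixed 15 min, then 2 uM Z-FR-AMC substrate added; reaction progress from fluorescence change between first and third reads (60 s).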
NS1 function inh – qHTS Assay for Inhibitors of Influenza NS1 Protein Function | S. cerevisiae slowed by influenza A NS1, growth recovery by OD600 | AID 2326, 2010 | Potency, µM (titrated, usually from 46.1 µM), for inactives: at the highest dose activity, positive = more growth | 270,000 compounds, 0.4% hits; also: actives are rising curves; nearly all actives have a fitted effect of over 50% in size
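S. cerevisiae expressing influenza A NS1, grown in glucose, washed, then diluted 1:100 into pH 6.0 -URA galactose medium with 23 nl compound. Growth recovery read as OD600; NS1-free strain serves as control.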
RE007 growth inh – qHTS Assay for Inhibitors of the HIV-1 protein Vpr. Potency, µM (doses to about 92.2 µM), without a hit: at the top dose activity change, negative = less growth. 360,000 compounds, 0.21% hits. S. pombe RE007 Vpr strain, BacTiter-Glo ATP luminescence, 24 h; control for the full effect not named in the record; active = well fitted falling curve with a large enough effect; inconclusive = small, poorly fitted or top-dose-only effect; inactive = no such curve, though single readings can be large or run the other way;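 also: % is scaled to controls: 0 for no effect and ±100 for the full control effect; nearly all actives have a fitted effect of over 50% in size; the assay follows cell death caused by Vpr and the record does not say whether a fall means rescue or toxicity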
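Fission yeast strain RE007, carrying one chromosomally integrated HIV-1 vpr copy, was seeded at OD 0.01 in PMG+AL medium with 23 nL pinned compound. After 24 h at 30 °C and 99% humidity, viability was read by BacTiter-Glo luminescence.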
SARS PLP yeast – qHTS of Yeast-based Assay for SARS-CoV PLP | S. cerevisiae expressing SARS-CoV PLpro, growth rescue; control for the full effect not named in the record | Potency, µM (series often up to 32.9 µM), without a hit: at the highest dose activity, positive = growth rescue | 330,000 compounds, 0.19% hits; also: 0% is about no effect; nearly all actives have a fitted effect of over 55% in size; growth read by luminescence after 48 h
MARV entry inh – qHTS for inhibitors of binding or entry into cells for Marburg Virus | Marburg virus pseudotyped entry inhibition, cell reporter; control for the full effect not named in the record; about a third of the inactives were read at about 46 µM | Potency, µM (series often up to 37.8 µM), for inactives: at the highest dose activity change, negative = inhibition, most hits filed as inhibitors | 300,000 compounds, 1.8% hits | AID 540276, 2011; active = well fitted inhibition curve with a large enough effect; inconclusive = small, poorly fitted or top-dose-only effect, or effect the other way; inactive = flat fitted curve, though single readings scatter; tested in HEK293 cells; about a fifth of its hits are not listed in these tables; also: % is scaled to controls: 0 for no effect and ±100 for the full control effect; luciferase read-out
StopGo reporter – High Throughput Screening for Foot and Mouth Disease Virus Antivirals; Potency, µM (highest dose often 57.9 µM), without a hit: at the highest dose signal change, negative = less light; human cells with a luciferase reporter of 2A StopGo recoding; control for the full effect not named in the record; 410,000 compounds, 1.2% hits; active = well fitted falling curve with a large enough effect; inconclusive = small, poorly fitted or top-dose-only effect; inactive = no such curve, though single readings can be large or run the other way; tested in HEK293T cells; also: % is scaled to controls: 0 for no effect and ±100 for the full control effect; nearly all actives have a fitted effect of over 45% in size; luciferase light after 4 h
An asterisk follows results filed as active; ? = inconclusive; / = no result given; [ ] = another dose, or the depositor's remark. Unless noted, calls follow the shape of the dose curve; as a rule, active means well fitted rising curve with a large enough effect; inconclusive means small, poorly fitted or top-dose-only effect; inactive means no such curve, though single readings can be large or run the other way. Potency is read from the fitted curve at half-maximal effect.

SMILES | Cruzain Triton | LASV entry inh | Cruzain noTriton | NS1 function inh | RE007 growth inh | SARS PLP yeast | MARV entry inh | StopGo reporter
CCCc1nnc(NC(=O)CCC(=O)N2CCN(Cc3ccc(C)cc3C)CC2)s1 | / | ? | / | -1.9% | -13.4% | 13.3% | -25.7%[46.1 µM] | -23.2%
COc1cc(/C=N/n2nnnc2N)ccc1OCC(N)=O | / | / | / | 8.1% | -1.9% | 1.8% | / | -3.1%
O=C(NCc1ccco1)C1CCN(S(=O)(=O)N2CCC3(CC2)OCCO3)CC1 | 0.5% | -5.0% | -2.9% | 3.3% | 4.2% | 4.6% | 16.0% | /
Cc1c(NC(=S)NNC(=O)CCC(=O)O)c(=O)n(-c2ccccc2)n1C | / | / | / | 6.4% | 6.9% | 0.6% | / | -15.1%
Cc1cc(C(N)=O)c2cc(Br)ccc2n1 | 2.2% | 3.8% | -1.9% | 4.7% | 1.2% | -4.8% | -1.7% | 13.6%
Cc1cc(C)nc(NS(=O)(=O)c2ccc(NS(=O)(=O)c3ccccc3)cc2)n1 | -0.3% | -0.8% | -5.0% | 4.0% | 9.1% | 9.3% | ? | /
CCOC(=O)CCc1nc2ccccc2[nH]1 | -5.0% | 17.6% | -0.8% | -1.2% | 6.8% | 1.7% | -1.2% | /
CCOC(=O)C(Cc1nc(OCc2ccccc2)cc(OCc2ccccc2)n1)=NO | / | ? | / | / | 1.5% | / | -27.9% | -28.9%
Clc1cccc(C2Nc3cccc4cccc(c34)N2)c1 | / | 8.4%[46.1 µM] | / | 29.9% | 5.6% | 2.3% | -1.6%[46.1 µM] | -2.0%
CCOC(=O)N1CCC(NCCNC(=O)c2ccc(Cl)cc2)CC1 | 5.6% | -5.8% | -7.2% | -4.0% | -0.5% | -0.2% | ? | -15.0%
CC(C)[C@H](NC(=O)[C@@H]1Cc2ccccc2CN1)C(=O)Nc1ccc2c(c1)OCO2 | / | / | / | 0.8% | -10.3% | -4.0% | / | 0.1%
C#Cc1ccc(CN2CCC(Oc3cc(C(=O)NC4CC4)ccc3OC)CC2)cc1 | / | / | / | 2.7% | 5.1% | 2.0% | / | -27.2%
CCCCCc1ccc(C(=O)CCCC)c(=S)[nH]1 | / | ? | / | / | -19.9% | 1.5% | ? | -6.6%
O=C(COc1ccc2ccccc2c1)NC1CC(=O)N(c2ccccc2)C1 (centres undefined) | -5.7% | 10.2%[46.1 µM] | 6.5% | / | / | / | / | -12.5%
CC(C)c1ccc(OCC(=O)NC(C)c2ccccc2)cc1 (centres undefined) | / | ? | / | -8.5% | -14.4% | 1.4% | 1.8% | -3.1%
O=S(=O)(c1ccc(F)c(F)c1)N1CCN(c2ccccn2)CC1 | / | / | / | 14.2% | 4.1% | 0.3% | / | -4.2%
NC(=NCCc1ccccc1)NS(=O)(=O)c1ccc2ccccc2c1 | -4.5% | -7.8% | -5.7% | -7.6% | 0.8% | 2.4% | -12.5% | 0.0%
O=C(N/N=C/c1ccncc1)c1ccccc1 | 1.9% | 22.0% | 0.0% | -0.7% | -4.1% | 0.8% | 5.6% | 5.3%
Cc1ccc(NC(=O)CSc2nncn2N)cc1C | / | / | / | -4.3% | 2.5% | -1.2% | / | 13.1%
Cc1ccccc1NC(=S)N(CCN1CCOCC1)Cc1ccccc1F | / | 6.9% | / | / | 45.7% | 2.4% | ? | 5.8%
COc1ccc2c(c1)c1c(c(=O)n(Cc3ccccc3)c(=O)n1CC(=O)Nc1ccccc1F)n2C | 5.6% | 2.8%[46.1 µM] | 5.6% | / | / | / | / | -4.3%
COCC(C)n1c(SCC(=O)N2CCc3ccccc3C2)nc2ccccc2c1=O (centres undefined) | -3.6% | ? | 12.1% | -26.6% | 10.6% | -15.1% | ? | 0.0%
Cc1oc(-c2ccccc2Cl)nc1CN1C(=O)CN=C(c2ccccc2)c2cc(Cl)ccc21 | -4.8% | -17.9%[46.1 µM] | 8.6% | / | / | / | 8.6%[46.1 µM] | -29.2%
O=C(CC1C(=O)NCCN1CC1CCCCC1)NCc1ccccc1Cl (centres undefined) | / | -3.7% | / | -2.8% | -12.7% | -0.4% | ? | -4.0%
O=C(Nc1ccccc1)c1cccc(Cn2cc(C(F)(F)F)ccc2=O)c1 | / | -1.8% | / | -7.8% | 10.2% | 0.3% | -9.9% | ?
O=C(Oc1ccccc1)c1cccc(N2C(=O)CCC2=O)c1 | 4.2% | -4.8% | 3.5% | -4.4% | -4.2% | 4.2% | 4.1% | /
CCOC(=O)N1CCc2c(sc3c2c(=O)n(Cc2ccccc2)c(=O)n3CC(=O)Nc2ccc(C)c(C)c2)C1 | 2.4% | 0.7%[46.1 µM] | -1.6% | / | / | / | -24.8%[46.1 µM] | -11.7%
Cc1ccc(S(=O)(=O)NCC(c2ccccc2)N2CCN(c3ccc(F)cc3)CC2)cc1 (centres undefined) | / | / | / | 25.6% | -13.9% | -0.7% | / | -19.6%
CN(C)C(=O)c1ccc(-c2cc(C(F)(F)F)nn2C)s1 | / | 16.8% | / | -0.1% | 30.2% | -1.5% | ? | 56.0%[activator]
O=S(=O)(c1ccc2ccccc2c1)N1CCc2ccccc21 | / | / | / | -14.9% | -12.8% | -3.2% | / | 2.2%
Cc1ccc(/C=C/c2ccc(=O)n(Cc3ccc(Cl)cc3Cl)n2)cc1 | 4.8% | 9.5% | -2.3% | -0.3% | 15.4% | 0.7% | 5.8%[46.1 µM] | ?
C=CCNC(=O)c1ccccc1NC(=O)C1COc2ccccc2O1 (centres undefined) | / | -22.1%[46.1 µM] | / | 6.1% | -8.7% | -0.1% | 0.2%[46.1 µM] | -10.3%
CCCC12CN3CC(C)(CN(C1)C31CCCCC1)C2=O | 4.5% | -1.1% | -2.5% | 5.5% | 35.3% | 1.3% | 2.6% | 12.3%
COc1ccc(NC(=O)CSc2nn3c(=O)c(C)nnc3s2)cc1 | / | -3.7%[46.1 µM] | / | 26.6% | 10.3% | -2.2% | 1.1%[46.1 µM] | -0.4%
CCCn1c(Cc2ccccc2)nnc1SCC(=O)N1CCOCC1 | 1.7% | 1.7% | 6.8% | 1.4% | 12.1% | -1.4% | 5.5% | 2.5%
Cc1cc(OC(C)C(=O)NC2CCN(Cc3ccccc3)CC2)c2c(C)cc(=O)oc2c1 (centres undefined) | / | / | / | 6.0% | 11.2% | ? | / | -17.8%
OCCN1CCN(CCOc2ccccc2-c2ccccc2)CC1 | 3.9% | ? | -3.7% | 11.2% | 1.4% | -2.9% | ? | 6.9%
Cc1ccc(C(=O)N/C(=C/c2ccccc2)C(=O)NCC2CCCO2)cc1 (centres undefined) | / | 1.4% | / | / | -4.3% | 6.0% | 23.3%[46.1 µM] | 12.4%
COc1ccc(NS(=O)(=O)c2ccc(C)c(C(=O)N(C)Cc3ccc(OC)cc3OC)c2)cc1 | / | -10.7% | / | / | -0.8% | -3.8% | ? | 17.7%
O=C(Cn1nnc(-c2ccccc2NC(=O)c2ccco2)n1)NC1CCCCC1 | -6.3% | 3.3% | -0.6% | 5.2% | -4.3% | -1.5% | -1.8% | -11.8%

Individual results from the results shown:
Under RE007 growth inh, `Cc1cc(OC(C)C(=O)NC2CCN(Cc3ccccc3)CC2)c2c(C)cc(=O)oc2c1` (centres undefined) has 11.2%
Under StopGo reporter, `COCC(C)n1c(SCC(=O)N2CCc3ccccc3C2)nc2ccccc2c1=O` (centres undefined) has 0.0%

Full records from above. Values in the order: Cruzain Triton, LASV entry inh, Cruzain noTriton, NS1 function inh, RE007 growth inh, SARS PLP yeast, MARV entry inh, StopGo reporter
`CCOC(=O)CCc1nc2ccccc2[nH]1` in the list: -5.0%, 17.6%, -0.8%, -1.2%, 6.8%, 1.7%, -1.2%, /
`O=C(Cn1nnc(-c2ccccc2NC(=O)c2ccco2)n1)NC1CCCCC1` in the list: -6.3%, 3.3%, -0.6%, 5.2%, -4.3%, -1.5%, -1.8%, -11.8%

(further entries)
SMILES | Cruzain Triton | LASV entry inh | Cruzain noTriton | NS1 function inh | RE007 growth inh | SARS PLP yeast | MARV entry inh | StopGo reporter
CCOC(=O)C1=NNC2(CC(=O)N(c3cc(C)cc(C)c3)C2=O)C1 (centres undefined) | / | 16.7%[46.1 µM] | / | 1.9% | 12.8% | 0.8% | ? | 30.6%[activator]
Cc1ccc(C)c(NC(=O)COC(=O)c2cccc3c2C(=O)c2ccccc2C3=O)c1 | -5.8% | ? | 3.2% | 9.5% | -7.7% | 6.8% | ? | ?
C=CCc1ccc(OCCCNCc2ccccc2)c(OC)c1 | / | / | / | 22.3% | -2.6% | 1.9% | / | 7.6%
CN1CCN(c2ccc(Cl)cc2NC(=O)c2ccc(S(=O)(=O)N3CCCCCC3)cc2)CC1 | -3.0% | -8.8% | -27.6% | -30.5% | -0.3% | -3.3% | ? | -16.8%
N#Cc1ccc(OCC(=O)N/N=C(\CCC(=O)O)c2cccs2)cc1 | / | 9.3% | / | / | 2.1% | -0.1% | ? | -15.0%
CCc1nn(Cc2cc(C)ccc2C)c(=O)c2cc3cc(C)ccc3n12 | 0.0% | / | 11.1% | / | / | / | -0.1%[46.1 µM] | -8.3%
O=C(O)/C=C\C(=O)Nc1ccc(N2CCN(c3ccc(Cl)c(Cl)c3)CC2)cc1 | / | -3.6%[46.1 µM] | / | -3.9% | ? | 0.5% | -18.9%[46.1 µM] | -25.5%
Cc1cccc2sc(NS(=O)(=O)c3ccccc3)nc12 | / | / | / | -8.1% | 7.3% | -3.3% | / | 31.8%[activator]
O=C(CSc1nnc(Cc2ccccc2)o1)NC1CC2CCC1C2 (centres undefined) | 0.0% | -7.1% | 0.0% | -11.7% | 3.1% | -3.6% | 5.5% | -6.4%
